# Yeast UUG start: yeast start codon fidelity modulation; S. cerevisiae UUG-firefly luciferase reporter, luminescence/redox ratio; activity score, % at 18.7 µM; actives 0.13% (n = 350,000);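 active = replicate mean at a twofold rise or more, about +100% in these data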;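 also: firefly luciferase made from a UUG start codon reports start codon fidelity; reporter light over untreated wells divided by growth signal over untreated wells; some hits fall short of that in this replicate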
# Env fusion inh: inhibitors of HIV Env-mediated cell fusion; actives 1.1% (n = 360,000); HeLa-JRFL Env/CEM21 cell fusion, luciferase; inhibition, % at 12.3 µM; AID 651610;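 active = mean replicate inhibition score of at least 50 and every replicate individually at or above 50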;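 also: 0% = plate neutral controls and 100% = maraviroc near 300 nM; one replicate is shown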
# * = called active by the depositor; [ ] = dose if it differs, or a comment. These rows are one share of the data, so the mix of outcomes need not match the whole.
Yeast UUG start | Env fusion inh | Compound
-26 | -15[16.7 µM] | O=C(N[C@@H]1CC[C@@H](CCn2cc(-c3ccccn3)nn2)O[C@H]1CO)c1cccnc1
4 | -24[16.7 µM] | C[C@@H]1CCCCO[C@H](CN(C)C(=O)Nc2ccc3c(c2)OCO3)[C@@H](C)CN([C@@H](C)CO)C(=O)c2cc(NC(=O)c3ccncc3)ccc2O1
4 | -9[16.7 µM] | CO[C@@H]1CN(C)C(=O)c2ccc(NC(=O)c3cccc(F)c3)cc2OC[C@@H](C)N(C(C)=O)C[C@@H]1C
1 | -19[16.7 µM] | C[C@H]1CN([C@@H](C)CO)C(=O)c2cc(NS(=O)(=O)c3ccccc3)ccc2O[C@@H]1CN(C)S(=O)(=O)c1cn(C)cn1
29 | 56*[16.7 µM] | Cc1ccc(S(=O)(=O)N[C@@H]2C=C[C@@H](CC(=O)N3CCC(Cc4ccccc4)CC3)O[C@@H]2CO)cc1
28 | -30[16.7 µM] | C[C@H]1CN([C@@H](C)CO)S(=O)(=O)c2ccc(C#Cc3cccnc3)cc2O[C@H]1CN(C)C(=O)CN(C)C
-2 | -11[16.7 µM] | CN(C)C(=O)C[C@H]1C=C[C@H](NC(=O)Nc2cccc(F)c2)[C@@H](CO)O1
11 | 6[16.7 µM] | C[C@H]1CN([C@@H](C)CO)C(=O)c2cc(-c3ccc(F)cc3)cnc2O[C@@H]1CN(C)CC1CCCC1
4 | -8[16.7 µM] | C[C@@H]1CN([C@@H](C)CO)C(=O)c2cc(NC(=O)Nc3ccc4c(c3)OCO4)ccc2O[C@@H](C)CCCCO[C@H]1CN(C)Cc1ccc(C(=O)O)cc1
-20 | 6[16.7 µM] | C/C=C/c1ccc2c(c1)O[C@@H](CN(C)Cc1ccncc1)[C@@H](C)CN([C@H](C)CO)S2(=O)=O
-11 | -32[16.7 µM] | CCC(=O)Nc1ccc2c(c1)C(=O)N(C)C[C@H](OC)[C@@H](C)CN(C(=O)c1ccncc1)[C@H](C)CO2
-7 | -22[16.7 µM] | COCC#Cc1ccc2c(c1)O[C@H](CN(C)C(=O)C1CCCCC1)[C@H](C)CN([C@H](C)CO)S2(=O)=O
-7 | 0[16.7 µM] | CCc1cnc(N2[C@H](C#N)[C@H](c3ccc(C#CCC4CCCC4)cc3)[C@@H]2CO)s1
20 | -141[16.7 µM] | CCCC(=O)Nc1ccc2c(c1)C(=O)N(C)[C@@H]1CC[C@H](CC(=O)NCC3CCCCC3)O[C@H]1CO2
15 | -6[16.7 µM] | C[C@@H]1CN([C@@H](C)CO)C(=O)c2cccc(NC(=O)c3cnccn3)c2O[C@@H]1CN(C)C(=O)NC1CCCCC1
0 | -8[16.7 µM] | CN(C)Cc1cn(CC[C@@H]2CC[C@H](NS(=O)(=O)c3ccc(-c4ccccc4)cc3)[C@@H](CO)O2)nn1
-7 | -3[16.7 µM] | O=C(C[C@H]1C=C[C@@H](NS(=O)(=O)c2ccccc2)[C@@H](CO)O1)NCc1ccncn1
0 | 8[16.7 µM] | O=C(CN1CCOCC1)NCC[C@@H]1CC[C@@H](NC(=O)Nc2ccc(Cl)cc2)[C@H](CO)O1
-7 | -9[16.7 µM] | C[C@H]1CN([C@@H](C)CO)C(=O)c2cccc(NC(=O)Nc3cccc4ccccc34)c2O[C@H]1CN(C)S(=O)(=O)c1ccccc1
1 | -123[16.7 µM] | Cc1noc(C)c1NC(=O)Nc1cccc2c1O[C@@H](CN(C)CC1CCCCC1)[C@H](C)CN([C@H](C)CO)C2=O
11 | -10[16.7 µM] | C[C@@H]1CN([C@@H](C)CO)C(=O)c2cccc(NS(=O)(=O)c3cn(C)cn3)c2O[C@@H]1CN(C)CC1CCCCC1
3 | 2[16.7 µM] | O=C(Nc1ccc(Cl)cc1)N[C@H]1CC[C@H](CCNC(=O)c2ccccc2F)O[C@@H]1CO
1 | -15[16.7 µM] | C[C@@H]1CN([C@H](C)CO)C(=O)Cc2cc(NC(=O)Cc3cn(C)c4ccccc34)ccc2O[C@@H]1CN(C)CC1CC1
0 | 17[16.7 µM] | C[C@H](CO)N1C[C@H](C)[C@H](CN(C)S(=O)(=O)c2ccc(Cl)cc2)Oc2ccc(NC(=O)Cc3cn(C)c4ccccc34)cc2C1=O
0 | 2[16.7 µM] | O=C(O)C[C@@H]1C[C@H]2c3cc(NC(=O)Nc4ccccc4)ccc3O[C@H]2[C@H](CO)O1
12 | 6[16.7 µM] | CC(C)NC(=O)Nc1ccc2c(c1)CC(=O)N([C@@H](C)CO)C[C@H](C)[C@H](CN(C)C(=O)Nc1ccccc1)O2
-20 | 5[16.7 µM] | O=C(C[C@H]1CC[C@@H]2NC[C@H](O)COC[C@H]2O1)NC1Cc2ccccc2C1
-5 | -12[16.7 µM] | CO[C@@H]1CN(C)C(=O)c2ccc(NC(C)=O)cc2OC[C@H](C)N(C(=O)c2ccccn2)C[C@@H]1C
21 | -6[16.7 µM] | CCC(=O)N1C[C@H](O)COC[C@H]2O[C@@H](CC(=O)NCc3ccc(Oc4ccccc4)cc3)CC[C@@H]21
29 | -8[16.7 µM] | C[C@@H]1CN([C@H](C)CO)C(=O)Cc2cc(NC(=O)CCCN(C)C)ccc2O[C@H]1CN(C)C(=O)Nc1ccc2c(c1)OCO2
10 | 11[16.7 µM] | CCCN1C[C@@H](C)[C@@H](OC)CN(C)C(=O)c2cc(NC(=O)c3ccccc3F)ccc2OC[C@@H]1C
-2 | -9[16.7 µM] | COc1ccccc1-c1ccc2c(c1)O[C@H](CN(C)C(=O)Nc1cccc(F)c1)[C@@H](C)CN([C@@H](C)CO)S2(=O)=O
3 | -4[16.7 µM] | Cc1ccc(S(=O)(=O)Nc2ccc3c(c2)C(=O)N([C@@H](C)CO)C[C@@H](C)[C@@H](CN(C)Cc2ccc(-c4ccccc4)cc2)O3)cc1
12 | -5[16.7 µM] | CC(C)C(=O)Nc1ccc2c(c1)C(=O)N(C)[C@H]1CC[C@H](CC(=O)NCCc3ccccc3)O[C@@H]1CO2
30 | 6[16.7 µM] | C[C@H]1CN([C@@H](C)CO)C(=O)c2cc(NC(=O)Nc3ccc(F)cc3)ccc2O[C@H]1CN(C)S(=O)(=O)c1ccc(Cl)cc1
-1 | 6[16.7 µM] | CCCNC(=O)N(C)C[C@@H]1Oc2cc(C#CCC(C)C)ccc2S(=O)(=O)N([C@@H](C)CO)C[C@@H]1C

# Continued, starting with the last two of the part before.
Yeast UUG start | Env fusion inh | Compound
30 | 6[16.7 µM] | C[C@H]1CN([C@@H](C)CO)C(=O)c2cc(NC(=O)Nc3ccc(F)cc3)ccc2O[C@H]1CN(C)S(=O)(=O)c1ccc(Cl)cc1
-1 | 6[16.7 µM] | CCCNC(=O)N(C)C[C@@H]1Oc2cc(C#CCC(C)C)ccc2S(=O)(=O)N([C@@H](C)CO)C[C@@H]1C
6 | 0[16.7 µM] | CC(C)NC(=O)N(C)C[C@@H]1Oc2cc(-c3ccccc3)ccc2S(=O)(=O)N([C@@H](C)CO)C[C@@H]1C
-17 | 13[16.7 µM] | CCC(=O)N(C)C[C@@H]1Oc2cc(-c3cccnc3)ccc2S(=O)(=O)N([C@H](C)CO)C[C@H]1C
-11 | 26[16.7 µM] | C[C@H]1CCCCO[C@H](CN(C)S(=O)(=O)c2cccs2)[C@@H](C)CN([C@@H](C)CO)C(=O)c2cc(NC(=O)Nc3ccc(C(F)(F)F)cc3)ccc2O1
-13 | -4[16.7 µM] | O=C(C[C@H]1C[C@H]2c3cc(NS(=O)(=O)c4ccc(F)cc4)ccc3O[C@H]2[C@@H](CO)O1)NCc1ccccn1
7 | 4[16.7 µM] | C[C@@H]1CCCCO[C@H](CN(C)S(=O)(=O)c2cn(C)cn2)[C@@H](C)CN([C@H](C)CO)C(=O)c2cc(NC(=O)CCC(F)(F)F)ccc2O1
7 | -4[16.7 µM] | C[C@@H]1CN([C@@H](C)CO)C(=O)c2cccc(NS(=O)(=O)c3cccs3)c2O[C@H]1CN(C)CC1CCCCC1
3 | -1[16.7 µM] | C[C@@H]1CCCCO[C@@H](CN(C)C(=O)c2ccccc2)[C@H](C)CN([C@H](C)CO)C(=O)c2cc(NS(=O)(=O)c3cccs3)ccc2O1
-4 | 0[16.7 µM] | C[C@H]1CN([C@@H](C)CO)C(=O)Cc2cc(NC(=O)Nc3ccc(F)cc3)ccc2O[C@@H]1CN(C)C(=O)Nc1ccc(F)cc1
-4 | -7[16.7 µM] | C[C@H]1CN([C@@H](C)CO)C(=O)c2cc(Br)cnc2O[C@H]1CN(C)Cc1ccccc1
-3 | -8[16.7 µM] | CNC(=O)C[C@@H]1CC[C@H]2[C@@H](COc3ccc(NC(=O)Cc4cccs4)cc3C(=O)N2C)O1
0 | -6[16.7 µM] | C[C@@H]1CCCCO[C@@H](CN(C)C(=O)NC2CCCCC2)[C@@H](C)CN([C@H](C)CO)C(=O)c2cc(NS(=O)(=O)c3cccs3)ccc2O1
-2 | 16[16.7 µM] | O=C(NCC[C@H]1CC[C@H](NC(=O)C2CC2)[C@H](CO)O1)Nc1ccc(C(F)(F)F)cc1

# Five compounds already listed, arranged by SMILES length, highest first:
Yeast UUG start | Env fusion inh | Compound
7 | 4[16.7 µM] | C[C@@H]1CCCCO[C@H](CN(C)S(=O)(=O)c2cn(C)cn2)[C@@H](C)CN([C@H](C)CO)C(=O)c2cc(NC(=O)CCC(F)(F)F)ccc2O1
0 | -6[16.7 µM] | C[C@@H]1CCCCO[C@@H](CN(C)C(=O)NC2CCCCC2)[C@@H](C)CN([C@H](C)CO)C(=O)c2cc(NS(=O)(=O)c3cccs3)ccc2O1
3 | -1[16.7 µM] | C[C@@H]1CCCCO[C@@H](CN(C)C(=O)c2ccccc2)[C@H](C)CN([C@H](C)CO)C(=O)c2cc(NS(=O)(=O)c3cccs3)ccc2O1
-4 | 0[16.7 µM] | C[C@H]1CN([C@@H](C)CO)C(=O)Cc2cc(NC(=O)Nc3ccc(F)cc3)ccc2O[C@@H]1CN(C)C(=O)Nc1ccc(F)cc1
-13 | -4[16.7 µM] | O=C(C[C@H]1C[C@H]2c3cc(NS(=O)(=O)c4ccc(F)cc4)ccc3O[C@H]2[C@@H](CO)O1)NCc1ccccn1

# Next compounds.
Yeast UUG start | Env fusion inh | Compound
-11 | 15[16.7 µM] | CC(C)NC(=O)N[C@@H]1C=C[C@@H](CC(=O)N2CCCCC2)O[C@@H]1CO
6 | -39[16.7 µM] | C[C@@H]1CCCCO[C@H](CN(C)C(=O)Cc2ccccc2)[C@H](C)CN([C@@H](C)CO)C(=O)c2cc(NC(=O)Cc3ccccc3)ccc2O1
-15 | 10[16.7 µM] | COc1ccc(NC(=O)Nc2ccc3c(c2)C(=O)N([C@H](C)CO)C[C@@H](C)[C@@H](CN(C)S(=O)(=O)c2ccc(OC)cc2)OCCCC[C@H](C)O3)cc1
4 | 7[16.7 µM] | CCCC(=O)Nc1ccc2c(c1)OC[C@H](C)N(C(=O)CC1CC1)C[C@H](C)[C@H](OC)CN(C)C2=O
2 | -26[16.7 µM] | CCC(=O)Nc1ccc2c(c1)C(=O)N(C)[C@@H]1CC[C@H](CC(=O)NC3Cc4ccccc4C3)O[C@H]1CO2
-9 | -11[16.7 µM] | CCC(=O)N(C)C[C@H]1Oc2ncc(-c3ccc(C#N)cc3)cc2C(=O)N([C@H](C)CO)C[C@@H]1C
-9 | 71*[16.7 µM] | COc1cccc(S(=O)(=O)N(C)C[C@H]2Oc3cc(C#CCC(C)C)ccc3S(=O)(=O)N([C@@H](C)CO)C[C@H]2C)c1
-8 | 24[16.7 µM] | C[C@H](CO)N1C[C@H](C)[C@@H](CN(C)S(=O)(=O)c2cn(C)cn2)Oc2ccc(NC(=O)Nc3ccc(C(F)(F)F)cc3)cc2CC1=O
7 | 3[16.7 µM] | C[C@H](CO)N1C[C@H](C)[C@H](CN(C)C(=O)Nc2ccc(F)cc2)OCCCC[C@H](C)Oc2ccc(NC(=O)c3ccncc3)cc2C1=O
15 | 13[16.7 µM] | COc1ccccc1S(=O)(=O)N(C)C[C@@H]1Oc2ncc(-c3ccc(C)cc3)cc2C(=O)N([C@@H](C)CO)C[C@H]1C
-8 | 21[16.7 µM] | COc1ccc(S(=O)(=O)N(C)C[C@@H]2OCCCC[C@H](C)Oc3ccc(NC(=O)Nc4ccc(F)cc4)cc3C(=O)N([C@H](C)CO)C[C@H]2C)cc1
-7 | 16[16.7 µM] | O=C(C[C@@H]1C[C@@H]2c3cc(NC(=O)c4ccc5c(c4)OCO5)ccc3O[C@@H]2[C@@H](CO)O1)NCc1cccc(F)c1
10 | -5[16.7 µM] | C[C@@H]1CN([C@@H](C)CO)C(=O)Cc2cc(NC(=O)Nc3cccc4ccccc34)ccc2O[C@@H]1CN(C)C(=O)Nc1ccc(F)cc1
8 | 7[16.7 µM] | CC(C)NC(=O)N(C)C[C@H]1Oc2cc(C3=CCCCC3)ccc2S(=O)(=O)N([C@H](C)CO)C[C@@H]1C
7 | -16[16.7 µM] | COc1ccc(NC(=O)N(C)C[C@@H]2OCCCC[C@H](C)Oc3ccc(NC(=O)Nc4ccc5c(c4)OCO5)cc3C(=O)N([C@H](C)CO)C[C@@H]2C)cc1
12 | 7[16.7 µM] | CC(C)NC(=O)Nc1ccc2c(c1)CC(=O)N([C@H](C)CO)C[C@@H](C)[C@H](CN(C)C(=O)Nc1ccc3c(c1)OCO3)O2
1 | 23[16.7 µM] | CC(C)CC#Cc1ccc2c(c1)O[C@@H](CN(C)C(=O)CN(C)C)[C@H](C)CN([C@@H](C)CO)S2(=O)=O
-10 | -7[16.7 µM] | Cc1noc(C)c1NC(=O)N(C)C[C@@H]1OCCCC[C@@H](C)Oc2ccc(NC(=O)CCC(F)(F)F)cc2C(=O)N([C@H](C)CO)C[C@@H]1C
-18 | 4[16.7 µM] | C[C@@H]1CN([C@H](C)CO)C(=O)c2cc(Br)cnc2O[C@@H]1CN(C)Cc1ccccn1

# Of the compounds above, 2 have a COOH group:
Yeast UUG start | Env fusion inh | Compound
4 | -8[16.7 µM] | C[C@@H]1CN([C@@H](C)CO)C(=O)c2cc(NC(=O)Nc3ccc4c(c3)OCO4)ccc2O[C@@H](C)CCCCO[C@H]1CN(C)Cc1ccc(C(=O)O)cc1
0 | 2[16.7 µM] | O=C(O)C[C@@H]1C[C@H]2c3cc(NC(=O)Nc4ccccc4)ccc3O[C@H]2[C@H](CO)O1
